High-throughput results deposited in PubChem by Johns Hopkins Ion Channel Center.
KCNQ2 inh: KCNQ2 potassium channel inhibitors, primary screen, cell-based, CHO-K1, FluxOR thallium flux, B-score (AID 2156). Potassium voltage-gated channel subfamily KQT member 2 (Rattus norvegicus), O88943. 20 min; hits give low values; only compounds with negative scores are shown here; some inactives read as strong as hits. B-score at 10 µM. actives 1.1% (n = 310,000);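 active = fluorescence ratio B-score at most minus 3 library SDs, with starting brightness B-score within 2 library SDs, cut at about -5.5 in these data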
Target sequence (O88943 whole entry, looked up): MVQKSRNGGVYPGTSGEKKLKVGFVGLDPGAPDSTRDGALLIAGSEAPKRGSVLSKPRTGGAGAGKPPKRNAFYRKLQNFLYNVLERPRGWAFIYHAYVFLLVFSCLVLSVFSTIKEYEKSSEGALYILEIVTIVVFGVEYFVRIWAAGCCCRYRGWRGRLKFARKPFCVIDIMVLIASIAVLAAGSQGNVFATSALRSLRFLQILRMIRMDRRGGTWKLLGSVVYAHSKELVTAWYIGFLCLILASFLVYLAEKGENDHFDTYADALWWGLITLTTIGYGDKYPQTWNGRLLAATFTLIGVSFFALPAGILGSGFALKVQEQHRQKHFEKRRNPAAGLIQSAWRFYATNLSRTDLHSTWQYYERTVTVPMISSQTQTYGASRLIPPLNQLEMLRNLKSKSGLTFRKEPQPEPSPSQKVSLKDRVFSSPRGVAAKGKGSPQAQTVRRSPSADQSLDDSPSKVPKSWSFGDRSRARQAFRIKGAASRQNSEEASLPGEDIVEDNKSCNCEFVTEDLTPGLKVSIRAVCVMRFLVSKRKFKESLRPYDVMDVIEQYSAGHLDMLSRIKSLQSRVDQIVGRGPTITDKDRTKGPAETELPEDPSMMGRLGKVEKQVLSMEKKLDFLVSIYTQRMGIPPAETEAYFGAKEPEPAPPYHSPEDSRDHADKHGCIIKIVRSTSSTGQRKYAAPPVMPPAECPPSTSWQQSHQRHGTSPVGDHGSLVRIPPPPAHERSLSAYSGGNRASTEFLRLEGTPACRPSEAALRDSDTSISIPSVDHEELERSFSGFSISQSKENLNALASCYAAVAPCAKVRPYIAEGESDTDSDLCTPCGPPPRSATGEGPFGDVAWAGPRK
KCNQ2 inh baseline: second read-out of KCNQ2 inh, no call of its own (marks repeat the call); B-score; measured here: initial fluorescence intensity artifact check;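 brightness before thallium and not channel activity; 0 = typical well and far values either way flag optical interference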
* = called active by the depositor; i = inactive. These rows are one share of the data (hit frequency here may not be typical).

The first four records, to show the layout:
Results follow in this order: KCNQ2 inh | KCNQ2 inh baseline
Cc1ccccc1Nc1nc2nonc2nc1N1CCOCC1
    i | -2.28
Cc1ccccc1CN1CCC(Oc2ccc(C(=O)NCc3ccccn3)cc2)CC1
    i | 0.69
COc1ccc(-c2[nH]n(-c3ccc([N+](=O)[O-])cc3)c(=O)c2C=NCc2ccccc2)cc1
    i | 3.52
Cc1ccc(-c2csc(N/N=C/C=C/c3ccccc3)n2)cc1
    i | -0.46

Results, from the start:
Results follow in this order: KCNQ2 inh | KCNQ2 inh baseline
Cc1ccccc1Nc1nc2nonc2nc1N1CCOCC1
    i | -2.28
Cc1ccccc1CN1CCC(Oc2ccc(C(=O)NCc3ccccn3)cc2)CC1
    i | 0.69
COc1ccc(-c2[nH]n(-c3ccc([N+](=O)[O-])cc3)c(=O)c2C=NCc2ccccc2)cc1
    i | 3.52
Cc1ccc(-c2csc(N/N=C/C=C/c3ccccc3)n2)cc1
    i | -0.46
CCCn1nnc(NCc2ccc(OCc3cccs3)c(OC)c2)n1
    i | 1.13
CCC(Oc1ccccc1)C(=O)Nc1ccccc1OC (stereo not given)
    i | 0.7
O=C(COC(=O)CCc1nc2ccccc2c(=O)[nH]1)Nc1c(Cl)cccc1C(F)(F)F
    i | 1.02
CC1Cc2cc(S(=O)(=O)N3CCCCC3)ccc2N1C(=O)C1CCC1 (stereo not given)
    i | 0.06
COc1cc(NS(C)(=O)=O)c(OC)cc1NC(=O)c1cccc(F)c1
    i | 0.01
CC1(C)Cc2c(c(N3CCCC3)nc3sc(C(=O)Nc4ccccc4)c(N)c23)CO1
    i | -0.62
Cc1ccc(NCc2nnc(SCC(=O)NNC(=O)Cc3ccccc3)n2C)cc1
    i | -0.23
CCOc1ccc(OCCOC(=O)CN2C(=O)NC3(CCCC3)C2=O)cc1
    i | -0.11
O=C(O)CC1S/C(=N/N=C/c2ccc(Br)cc2)N(c2ccccc2)C1=O (stereo not given)
    i | -1.73
CN(CC(=O)Nc1ccc(F)c(F)c1F)C(=O)c1cc(-c2ccncc2)nc2ccccc12
    i | -2.54
Cc1sc2nc(CSc3cccc(C(F)(F)F)c3)[nH]c(=O)c2c1C
    i | 2.11
COc1ccc(NC(=O)CN2CCC(C)CC2)c([N+](=O)[O-])c1
    i | -0.62
NC(=NCCc1ccc(Cl)cc1)NS(=O)(=O)c1ccccc1
    i | -1.45
CC(OC(=O)C1=Cc2ccccc2OC1)C(=O)NC(C)(C)C (stereo not given)
    i | 0.03
CCCCCCCCN1[C@@H](CC(=O)OCC)c2cc(C(F)(F)F)ccc2S1(=O)=O
    i | -1.7
Cn1cccc1/C=N\NC(=O)c1cncc(Br)c1
    i | 0.36
CN(C)c1ccc(C(=S)N2CCN(Cc3ccccc3)CC2)cc1
    i | 0.49
Cc1ccc(S(=O)(=O)CC(=O)N2CCN(c3cccc(C(F)(F)F)c3)CC2)cc1
    i | -1.24
Cc1cc(C(=O)OCC(=O)NCc2ccco2)c(C)n1-c1ccccc1
    i | 1.82
Cc1nn(CC(=O)NNC(=O)c2cccc(Br)c2)c(C)c1[N+](=O)[O-]
    i | 1.34
COc1ccc(C)cc1NC(=S)NC(C)c1ccc(OC)c(OC)c1 (stereo not given)
    i | 3.43
O=C(Nc1ccc(S(=O)(=O)NCc2ccccc2)cc1)C1CCCCC1
    i | -0.71
CCOC(=O)N1CCC(=NNC(=O)COc2ccc(C#N)cc2)CC1
    i | 0.15
COC(=O)[C@@H](c1ccccc1)N(C)S(=O)(=O)c1cccc(S(=O)(=O)N(C)[C@@H](C(=O)OC)c2ccccc2)c1
    i | 0.03
CC(C)NCC(=O)Nc1c2c(nc3ccccc13)CCC2
    i | 2.68
Cc1ccc(-c2csc3nc(=O)c(C)nn23)cc1
    i | 1.27
O=C(NC(C(=O)N/N=C/c1cccnc1)c1n[nH]c(=O)c2ccccc12)c1ccccc1 (stereo not given)
    i | 1.69
C=C1CC2C(=O)N(Cc3cc(OC)ccc3OC)C(C(=O)OCC)(C(=O)OCC)C1N2C(=O)OC(C)(C)C (stereo not given)
    i | -2.56
COc1ccccc1C(=O)NCCN=C1NS(=O)(=O)c2ccccc21
    i | -0.32
CCCN1CCN(S(=O)(=O)c2ccc3c(c2)NC(=O)C(C)S3)CC1 (stereo not given)
    i | 2.05
COc1cc(/C=C2/SC(=S)N(CC(=O)O)C2=O)ccc1OC(=O)c1ccco1
    i | 0.04
Cc1cc(C)nc(NC2=NC3CCCCC3N2)n1 (stereo not given)
    i | 0.01
Cc1ccc(-n2nnnc2-c2cccc(C)c2)cc1
    i | -0.01
CC(=O)NC(=O)c1ccc(-c2ccc(Cl)cc2)o1
    i | -1.13
CC(Sc1nc(-c2ccccc2)cc(C(F)(F)F)n1)C(=O)NCCN1CCOCC1 (stereo not given)
    i | 0.09
Cc1cccc(C)c1OCC(=O)NCc1ccccc1
    -6.38* | 1.81*
C=CCC1(CC=C)CCCN1C(=O)c1cc(COc2ccc(-n3cncn3)cc2)on1
    i | -0.77
CC(c1ccccc1)N1C(=O)c2ccc(C(=O)Nc3ccccc3C(=O)O)cc2C1=O (stereo not given)
    i | 0.04
CCOc1ccc(-c2cc(CCCC(=O)Nc3cccc(OC)c3)no2)cc1
    i | -0.21
Cc1cccc(N2CCN(C(=O)c3cc4ccccc4oc3=O)CC2)c1C
    i | -0.25
COc1ccc(CCNC(=O)Cn2c(-c3nonc3N)nc3ccccc32)cc1OC
    i | -1.52
CC(C(=O)O)N(C(=O)c1ccccc1)c1ccc(F)cc1 (stereo not given)
    i | 1.19
Cn1c2ccccc2c2c(C(=O)N3CCN(C(=O)c4ccco4)CC3)cn(C3CCCCC3)c(=O)c21
    i | 0.31
COCCOC(=O)c1c(NC(=O)CNC2CCCc3ccccc32)sc(C(N)=O)c1C (stereo not given)
    i | 0.35
COc1cc(C2=NOC(C(=O)N3CCOCC3)C2)cc(OC)c1OC (stereo not given)
    i | -2.75
CC(C)(C)c1ccc(C(=O)NC(=S)NNC(=O)COc2ccccc2)cc1
    i | 0.18
Cc1c(Cl)cccc1NC(=O)c1ccccc1-c1ccccc1C(=O)O
    i | -0.12
COc1ccc(OC)c(S(=O)(=O)CC(O)CS(=O)(=O)c2ccccc2)c1 (stereo not given)
    i | -0.37
O=C(Nc1ccccc1)OCc1ccccn1
    i | -0.89
C#CCOC(=O)c1ccccc1C(=O)n1nnc2ccccc21
    i | 2.09
COc1cc(S(=O)(=O)n2ccnc2)ccc1Br
    i | 0.27
O=C(c1cc(-c2cccs2)nc2ccccc12)N1CCN(S(=O)(=O)c2ccccc2)CC1
    i | 1.18
Cc1c(C(=O)O)sc(S(=O)(=O)N2CCNCC2)c1C(=O)O
    i | -1.57
CCOC(=O)c1cc(-c2ccc3c(c2)OCCO3)nc2c1c(C)nn2CCC#N
    i | -0.09
CC(/C=N/NC(=O)c1nnn(-c2nonc2N)c1CN1CCCCC1)c1ccccc1 (stereo not given)
    i | 1.5
CCOC(=O)N1CCN(C(c2cccnc2)c2ccc3cccnc3c2O)CC1 (stereo not given)
    i | 0.78

Other records follow:
Results follow in this order: KCNQ2 inh | KCNQ2 inh baseline
CCCc1nc2oc3c(OCC)ncnc3c2c2c1COC(C)(C)C2
    i | -1.54
O=C(COc1ccccc1Br)NCc1ccccn1
    i | 0.34
N#CCC(=O)NC1CCC(CC2CCC(NC(=O)CC#N)CC2)CC1 (stereo not given)
    i | -0.14
Cc1cnc(NC(=O)C2CC=CCC2)s1 (stereo not given)
    i | 0.3
CCOc1ccc(NCCC(O)c2ccc(F)cc2)cc1 (stereo not given)
    i | 0.04
Nc1ncnc2c1ncn2CCOc1ccccc1
    i | 2.28
COc1ccc(NC(=O)C2CCCN(c3nccc(C)n3)C2)cc1 (stereo not given)
    i | -0.05
Cc1ccc(-c2onc3ccc(C=O)cc23)cc1
    i | 0.48
Cc1ccc(CN2CCN(Cc3cn(C)nc3C)CC2CCO)o1 (stereo not given)
    i | 1.35
CC(/C=C\C=C\c1ccccc1)=N\NC(=O)c1cncc(Br)c1
    i | 0.32
N#C/C(=C(/O)c1ccc(Cl)cc1)c1nc2ccccc2[nH]1
    i | 0.03
O=C(CSc1nc(-c2ccco2)cc(C(F)(F)F)n1)NCC1CCCO1 (stereo not given)
    i | -0.03
O=C(CSc1nnnn1-c1ccc2c(c1)CCC2)NCc1cccs1
    i | -0.45
Clc1cnc(N/N=C/c2ccco2)c(Cl)c1
    i | 0.05
O=C(NCc1ccccc1)N1CCN(c2ccc(Cl)c(Cl)c2)CC1
    i | -0.71
CCCC(C)C(=O)Nc1nc(C)c(-c2csc(Nc3cc(Cl)ccc3C)n2)s1 (stereo not given)
    i | -0.05
COc1ccc(-c2cc(=O)[nH][nH]2)cc1OC
    i | -0.21
COc1ccc(OC)c(C2C3=C(N=c4s/c(=C\c5cccc(O)c5)c(=O)n42)c2ccccc2CC3)c1 (stereo not given)
    i | -0.07
COc1ccc(NC(=O)CCCn2c(=O)c3sccc3n(Cc3ccc(C)cc3C)c2=O)cc1
    i | -1.66
CCOC(=O)c1c(NC(=O)CSc2nnc(CNc3ccc(OC)cc3)n2C)sc(C)c1C
    i | 0.73
Cc1nc([N+](=O)[O-])cn1CC(=O)Nc1ccc([N+](=O)[O-])cc1
    i | -0.01
C=CCn1c(C)cc(/C([O-])=C(/C(=S)Nc2ccc(OC(F)F)cc2)[n+]2ccc(N(C)C)cc2)c1C
    i | -0.02
COc1ccc(Cl)cc1NC(=S)NNC(=O)c1cccnc1
    i | -1.9
Cn1cc(/C=C/C(=O)N2CCCC(C(=O)c3ccc(C(F)(F)F)cc3)C2)cn1 (stereo not given)
    i | 0.31
COc1ccc(CC(=O)N2CCC3(CC2)NCCc2[nH]cnc23)cc1
    i | -0.11
Cn1cccc1Cc1nnc(SCC(=O)Nc2ccccc2F)n1-c1ccc(F)cc1
    i | 3.36
O=C(OCc1nc2ccc(Cl)cc2n1CCO)c1ccccc1C(=O)c1ccccc1
    i | 0.73
CCN(CC)Cc1c(C(=O)N/N=C/c2ccco2)nnn1-c1nonc1N
    i | 0.66
CCOC(=O)Cn1nc(C)c(NC(=O)COc2ccc([N+](=O)[O-])c(C)c2)c1C
    i | -1.12
CCN1CCN(CCCNC(=O)c2cc3c(s2)-c2ccccc2OC3)CC1
    i | -0.01
Cc1ccc(NC(=O)c2ccc(OC(=O)COc3ccc(Cl)c(C)c3)cc2)cc1
    i | 1.02
CC1CN(CC(=O)Nc2ccccc2Sc2ccccc2)CC(C)O1 (stereo not given)
    i | -0.27
Cc1ccc(N2CC(C(=O)Nc3ccc(S(=O)(=O)NCC4CCCO4)cc3)CC2=O)cc1 (stereo not given)
    i | -0.77
CCOc1cc(CN2CCN(c3cccc(C(F)(F)F)c3)CC2)ccc1O
    i | -0.9
COc1cc(OC)c(C2=NOC(C(=O)NCc3ccc4c(c3)OCO4)C2)cc1Cl (stereo not given)
    i | -0.32
COc1ccccc1C1C(C#N)=C(N)N(N(C)C)C2=C1C(=O)CC(C)(C)C2 (stereo not given)
    i | -0.26
O=C(N/C(=C/c1ccc(Cl)cc1)C(=O)N1CCOCC1)c1ccccc1
    i | 1.49
CCOC(=O)c1sc(NC(=O)C(CC)OC(=O)c2ccco2)nc1C (stereo not given)
    i | -2.24
CN(C)/N=C/c1ccc(/C=N/NC(N)=S)o1
    i | -0.24
CCOC(=O)c1cc(C)sc1/N=C/C1C(=O)CC(C)(C)CC1=O
    i | -1.16
O=C(c1ccccc1F)N(Cc1cccs1)C1CCS(=O)(=O)C1 (stereo not given)
    i | -1.39
COc1cc(NC(=O)COc2cccc(OC)c2)cc(OC)c1
    i | 1.35
CN1CCN(c2nc3ccccn3c(=O)c2C=C(C#N)C#N)CC1
    i | 0.23
COc1ccc(NC(=O)C(CC(C)C)NC(=O)C2CCC(C)CC2)c(OC)c1 (stereo not given)
    i | 2.43
O=C(Nc1ccc(N2CCOCC2)cc1N1CCOCC1)c1cccc([N+](=O)[O-])c1
    i | 1.39

Random excerpt: 3 compounds from above
Results follow in this order: KCNQ2 inh | KCNQ2 inh baseline
COc1ccccc1C1C(C#N)=C(N)N(N(C)C)C2=C1C(=O)CC(C)(C)C2 (stereo not given)
    i | -0.26
CCOc1cc(CN2CCN(c3cccc(C(F)(F)F)c3)CC2)ccc1O
    i | -0.9
CN1CCN(c2nc3ccccn3c(=O)c2C=C(C#N)C#N)CC1
    i | 0.23

3 compounds already listed, arranged by formula weight, rising.
Results follow in this order: KCNQ2 inh | KCNQ2 inh baseline
CN1CCN(c2nc3ccccn3c(=O)c2C=C(C#N)C#N)CC1
    i | 0.23
CCOC(=O)c1sc(NC(=O)C(CC)OC(=O)c2ccco2)nc1C (stereo not given)
    i | -2.24
Cc1ccc(NC(=O)c2ccc(OC(=O)COc3ccc(Cl)c(C)c3)cc2)cc1
    i | 1.02

The list goes on.
Results follow in this order: KCNQ2 inh | KCNQ2 inh baseline
CCN(CC)S(=O)(=O)c1ccc(N2CCOCC2)c(NC(=O)c2cccc3ccccc23)c1
    i | -0.02
O=C(NC(=S)NC1C2CC3CC(C2)CC1C3)c1ccccc1 (stereo not given)
    i | 0.43
C#CCNc1c2c(nc3ncnn13)CC(C)CC2 (stereo not given)
    i | -2.47
O=C(c1ccc(F)cc1)N1CCC2(CC1)NCCc1[nH]cnc12
    i | 1.3
Cc1ccc(CNC(=O)C2(C(F)(F)F)C/C(=C\Cc3ccccc3)CCCO2)o1 (stereo not given)
    i | -0.43
Nn1c(SCC(=O)Nc2ccccc2F)nnc1-c1cccnc1
    i | 1.87
O=C(c1ccc(S(=O)(=O)N2CCCCC2)cc1)N1CCc2ccccc2C1
    i | -0.57
